# UCH37 DUB inh = inhibitors of human UCH37 deubiquitinase, primary screen, biochemical, Ub-AMC cleavage, fluorescence; AID 588478, 2011; Ubiquitin carboxyl-terminal hydrolase isozyme L5 (Homo sapiens), Q9Y5K5; 330,000 tested, 0.33% active; inhibition, % (test concentration not listed); purified proteasome/UCH37;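 active = mean of two replicates above 20%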;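 note: 0% = compound-free wells with enzyme and 100% = wells lacking proteasome; stock transfer was 100 nL into about 20 µL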
# Target sequence (Q9Y5K5 whole entry, looked up): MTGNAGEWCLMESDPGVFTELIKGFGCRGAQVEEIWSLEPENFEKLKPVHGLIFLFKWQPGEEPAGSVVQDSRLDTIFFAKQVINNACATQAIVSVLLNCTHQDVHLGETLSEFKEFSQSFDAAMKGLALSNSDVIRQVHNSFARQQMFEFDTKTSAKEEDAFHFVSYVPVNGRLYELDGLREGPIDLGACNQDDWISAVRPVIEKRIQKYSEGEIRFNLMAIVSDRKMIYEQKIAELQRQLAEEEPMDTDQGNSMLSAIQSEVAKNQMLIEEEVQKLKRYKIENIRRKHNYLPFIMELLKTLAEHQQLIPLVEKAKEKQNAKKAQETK
#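 Material: human UCH37 enzyme supplied as purified proteasome complex / Amount: 0.15 nM proteasome as dispensed / Buffer or medium: pH 7.4 Tris-HCl (50 mM) with ovalbumin, ATP-MgCl2, DTT / Times: preincubation 30 min, reaction 25 min, room temperature / Technique: AMC fluorescence from Ub-AMC cleavage, excitation 355 nm, emission 460 nm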
# B2AR ag = beta2AR agonists driving receptor internalization, primary screen, cell-based, FAP fluorogen, flow cytometry; Am2.2-beta2AR cells; reference of the scale not given here; response, % (concentration not given with the values); 340,000 tested, 0.43% active; AID 504454, 2011;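 active = response above a set limit, near 3 SD of response in nonfluorescent compounds, cut at about 42% in these data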;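 note: stock transfer was 100 nL into about 11 µL; a reference agonist was the positive control; negative values mostly stem from fluorescent compounds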
# Target sequence (P07550 whole entry, looked up): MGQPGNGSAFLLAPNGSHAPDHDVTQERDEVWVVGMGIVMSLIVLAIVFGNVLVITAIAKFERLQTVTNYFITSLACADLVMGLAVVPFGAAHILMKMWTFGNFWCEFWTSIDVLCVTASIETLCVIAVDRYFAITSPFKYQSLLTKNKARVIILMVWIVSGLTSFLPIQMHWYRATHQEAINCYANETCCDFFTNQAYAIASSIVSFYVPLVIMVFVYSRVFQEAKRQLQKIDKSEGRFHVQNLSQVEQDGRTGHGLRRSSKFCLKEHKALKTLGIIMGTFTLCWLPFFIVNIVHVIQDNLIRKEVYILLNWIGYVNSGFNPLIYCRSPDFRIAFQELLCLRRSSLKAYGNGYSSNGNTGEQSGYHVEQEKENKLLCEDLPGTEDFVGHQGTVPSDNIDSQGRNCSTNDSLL
# Calb FLC = C. albicans growth inhibition with fluconazole, primary screen, CaCi-2 strain, Alamar Blue fluorescence | AID 1979, 2009 | 300,000 tested, 0.57% active | C. albicans CaCi-2 (fluconazole-resistant clinical isolate) + fluconazole, 48 h | growth inhibition, % (concentration not given with the values);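 active = most replicates above 75%; inconclusive = exactly half above 75%; inactive = most below 75%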;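 note: all wells also contain fluconazole at 8 µg/ml as a sub-toxic cotreatment; 0% = median of DMSO wells and 100% = median of geldanamycin control wells; wells of about 8 µL received 7.5 nL stock; the first replicate is given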
# RanGTP-Impb inh = inhibitors of RanGTP-importin-beta interaction, primary screen, biochemical, FRET, CFP-Ran, YFP-importin-beta, homogeneous | Ran GTPase (GTP-bound) - importin-beta complex | cell-free CFP-Ran/YFP-importin-beta FRET ratio | inhibition, % (no concentration beside the values) | 300,000 tested, 1.1% active | AID 2216, 2009;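 active = most replicates above 15%; inconclusive = exactly half above 15%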;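 note: 0% = DMSO wells and 100% = Ran loaded with GDP instead of GTP; wells of about 40 µL received 100 nL stock; the first replicate is given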
# A1 inh = caspase 3/7 activation in MEF A1-2A-BIM cells, primary screen, A1 inhibitor project, cell-based, luminescence, HTS. Caspase-Glo 3/7 luminescence, 3 h; percent of clofoctol response, vehicle zero. caspase activation, % (no concentration beside the values). 330,000 tested, 0.066% active. AID 2462, 2010;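 active = over half of replicate activation scores above 10%, or exactly half above 10 with the replicate mean above 10; inconclusive = replicate mean below 10 yet half the replicates above 10; inactive = over half of replicates below 10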;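 note: wells of about 30 µL received 50 nL stock; many hits fall short of the cut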
# LANA-H2A inh = blockers of LANA interaction with H2A/H2B – biochemical, FP readout, HTS, primary screen; Protein LANA1 (Human herpesvirus 8 type P (isolate GK18)), Q9QR71; cell-free LANA-H2A/H2B peptide, fluorescence polarization; inhibition, % (no concentration beside the values); 320,000 tested, 0.6% active; in the data active = inhibition mostly above about 10%, no sharp cut-off; inactive = mostly below about 6.7%;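 note: stock transfer was 7.5 nL into about 10 µL; 0% = median of vehicle wells and 100% = median of positive control wells; one replicate is shown; the record names a cut of 25% in any replicate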
# T cruzi inh = inhibitors of intracellular T. cruzi growth, primary screen, luminescence, NIH3T3 host cells; T. cruzi beta-gal in NIH3T3, 90 h; inhibition, % (concentration not given with the values); 300,000 tested, 1.4% active;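 active = mean inhibition across valid replicates above about 55%, limit read from the data; inconclusive = mean below that limit but half or more replicates reach it; inactive = mean below it, under half of replicates reach it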;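 note: signal also drops with host cell toxicity which is not excluded here; 0% = plate median of DMSO wells and 100% = zero luminescence signal; higher percent means less beta-gal luminescence so fewer parasites; stock transfer was 50 nL into about 50 µL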
# Beta apoptosis = inhibitors of cytokine-induced beta cell apoptosis, primary screen, luminescence; AID 435005, 2010; protection from apoptosis, % (test concentration not listed); INS-1E cytokine-induced death, ATP luminescence, 48 h; percent of positive-control rescue, neutral wells zero; 300,000 tested, 0.8% active;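 active = all replicates at 75% or more, or half of them and the mean; inconclusive = half reach 75% but not the mean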;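 note: 0% = cytokine-treated negative control wells and 100% = positive control rescue; higher means more ATP so stronger rescue from cytokine killing; wells of about 40 µL received 100 nL stock; the first replicate is given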
# Active calls of the source: *; ? = inconclusive; / = no result given.
compound,UCH37 DUB inh,B2AR ag,Calb FLC,RanGTP-Impb inh,A1 inh,LANA-H2A inh,T cruzi inh,Beta apoptosis
Cc1nnc2n(c1=O)C(CS(=O)(=O)c1ccccc1)CS2 (stereo not given),0.5,6,-15,-0.5,1.5,5.1,4,4
CC(=O)NCC(=O)N1CCC(n2nccc2NC(=O)CCCc2ccccc2)CC1,1.5,2,20,-2.9,0.9,-18,-38,-7
N#Cc1cccc(C(=O)OCC(=O)N2CCCc3ccccc32)c1,2.1,-3,4,-12,1.4,2.1,-6,-1
CCOC(=O)c1c(C)[nH]c(C(=O)COC(=O)c2oc3ccc(OC)cc3c2C)c1C,-21,-3,0,1.4,-0.4,2.6,-12,-2
CCN(CC)S(=O)(=O)c1ccc(C(=O)Nc2c3c(nn2C(C)(C)C)CS(=O)(=O)C3)cc1,2.6,14,-1,-1.7,1.0,2.2,-29,-12
O=C1CC(NNc2nc3ccccc3s2)C(=O)N1c1ccc(F)cc1 (stereo not given),7.5,-1,-3,-3.0,0.4,0.9,1,/
COC(=O)c1ccc(Oc2nc(Nc3ccccc3)nc(N(C)C)n2)cc1,-1.5,-2,2,0.1,-0.5,-1.3,-15,9
Fc1ccc(OCc2nc3ccccc3s2)cc1,-0.6,11,-14,1.2,-0.5,-4.6,-3,-1
CC(=O)Oc1ccc(-c2cccc(C(=O)Oc3ccccc3)c2)cc1,2.3,6,-5,-0.9,0.2,1.0,-9,-1
Cc1ccc(S(=O)(=O)NCCNC(=O)c2nonc2N)cc1,4.4,-2,-2,-0.9,1.0,1.6,-6,/

# A run of entries of the results above:
compound,UCH37 DUB inh,B2AR ag,Calb FLC,RanGTP-Impb inh,A1 inh,LANA-H2A inh,T cruzi inh,Beta apoptosis
CC(=O)Oc1ccc(-c2cccc(C(=O)Oc3ccccc3)c2)cc1,2.3,6,-5,-0.9,0.2,1.0,-9,-1
Cc1ccc(S(=O)(=O)NCCNC(=O)c2nonc2N)cc1,4.4,-2,-2,-0.9,1.0,1.6,-6,/

# Next structures.
compound,UCH37 DUB inh,B2AR ag,Calb FLC,RanGTP-Impb inh,A1 inh,LANA-H2A inh,T cruzi inh,Beta apoptosis
Cc1ccc(C)c(N2CCN(CCN3CCCCC3)CC2)c1,4.6,-6,-6,2.1,0.2,-2.7,41,-4
CCOC(=O)c1c(NC(=O)CSc2c[nH]c3ccccc23)sc2c1CCCC2,4.5,13,3,-3.3,1.2,-1.0,30,5
Cc1cc2c(=O)[nH]cnc2s1,-0.9,1,-8,-0.6,0.1,-1.3,3,-3
O=C(Nc1ccccc1C(=O)N1CCCC1)c1ccc(Cl)c([N+](=O)[O-])c1,-2.8,-11,-3,1.1,-1.0,-1.2,-1,-11
O=S(=O)(N/N=C\c1ccccc1O)c1ccc(Cl)cc1,/,7,19,?,-0.6,1.3,-3,4
CCOC(=O)N/N=C/c1cc(C)n(-c2ccccc2)c1C,/,15,5,-0.5,0.0,0.1,-7,1
CCOC(=O)[C@@H]1[C@H]2COc3cc(OC)ccc3[C@@H]2N2C(=O)N(c3cccc(C)c3)C(=O)[C@]12C,1.5,1,/,/,-1.9,0.1,/,0
COc1cccc(C=Nc2cccnc2)c1O,/,/,24,-2.0,-0.5,-3.1,-2,-5
Cc1nc(CNS(=O)(=O)c2cccnc2)cs1,0.4,0,-1,1.1,1.0,3.8,13,5
CC(CCc1ccccc1)NCC(O)c1cccc([N+](=O)[O-])c1 (stereo not given),3.6,-12,-21,-2.8,0.9,-1.8,21,-6

# Next section.
compound,UCH37 DUB inh,B2AR ag,Calb FLC,RanGTP-Impb inh,A1 inh,LANA-H2A inh,T cruzi inh,Beta apoptosis
CC(=O)Nc1ccnn1C1CCN(C(=O)c2cccc(C)c2C)CC1,4.5,-3,-4,-1.3,1.1,-0.6,11,-3
COc1cc2[nH]c(=O)n(CCC(=O)NCCC(C)C)c(=O)c2cc1OC,-7.2,13,2,2.4,0.2,0.1,-9,-1
COc1cccc(/C=N/Nc2ncnc3c2[nH]c2ccc(C)cc23)c1OC,/,52*,-2,7.4,-0.5,-1.1,12,4
NC(=O)COC(=O)c1ccccc1SCC(=O)NC1CCCCCC1,1.4,-1,8,5.2,0.9,1.1,4,/
COC(=O)C1=C(C)N(CCCC(=O)O)C(=O)NC1c1ccc(-c2ccccc2)cc1 (stereo not given),-2.9,4,-3,0.3,0.3,2.8,0,-1
Cc1ccc(NC(=S)Nc2ccc(S(=O)(=O)N3CCOCC3)cc2)cc1S(=O)(=O)N1CCOCC1,3.7,14,-12,-2.0,0.0,1.8,-10,2
CCOC(=O)C1(Cc2cccc(OC)c2)CCN(Cc2ccc3c(c2)OCCO3)CC1,1.6,-1,-6,1.9,2.6,8.5,33,7
C/C=C\C=C/C(=O)Nc1cccc(C2=NOC3(C2)C[C@@H](C(N)=O)N(C(=O)c2ccccc2)C3)c1 (stereo not given in full),/,/,0,-2.8,-0.1,-5.4,-6,1
CCN(CC(=O)NCc1ccc(F)cc1)C(=O)/C=C/c1cccs1,4.0,-1,1,0.0,0.2,-0.7,-17,5
COc1cc(C(=O)NCC(=O)NCCSc2ccc(Br)cc2)cc(OC)c1OC,1.9,3,-8,-4.6,-0.1,-0.3,-7,-6

# Part of the list above with just Beta apoptosis.
smiles | Beta apoptosis
CCN(CC(=O)NCc1ccc(F)cc1)C(=O)/C=C/c1cccs1 | 5
COc1cc(C(=O)NCC(=O)NCCSc2ccc(Br)cc2)cc(OC)c1OC | -6

# Going on with the list.
compound,UCH37 DUB inh,B2AR ag,Calb FLC,RanGTP-Impb inh,A1 inh,LANA-H2A inh,T cruzi inh,Beta apoptosis
COc1ccccc1C1C(C#N)=C(N)Oc2c1oc(CO)cc2=O (stereo not given),0.7,5,7,-1.8,-0.7,12*,6,1
CC(=O)NC12CC3CC(C1)CC(C(=O)Oc1ccc(N(C)S(=O)(=O)c4cc(C)ccc4C)cc1)(C3)C2,2.2,6,-13,6.2,-0.6,1.5,28,/
COc1cccc(C2=NOC(C(=O)N3CCc4ccccc4C3)C2)c1 (stereo not given),5.5,16,2,23*,-1.2,-7.1,-8,-1
CC(C)C[C@@H](COc1ccccc1)N1CCN(C)CCC1=O,5.2,2,2,1.3,1.0,-4.8,-13,-10
COc1ccc(NC(=S)c2ccncc2)cc1,5.1,27,-21,-5.7,-0.6,2.7,-7,0
Cc1csc(SCCn2c(N3CCOCC3)nc3c2c(=O)[nH]c(=O)n3C)n1,1.4,-1,-4,-0.5,-1.4,4.7,-5,-2
O=C(CSCc1ccccc1)Nc1cc([N+](=O)[O-])ccc1F,5.0,-2,4,5.0,0.8,-6.4,1,-1
CCC(=O)Nc1ccc(NC(=S)NC(=O)Cc2ccccc2)cc1,4.3,-35,4,-3.2,0.9,2.5,-5,-1
COc1ccc(NC(=O)COC(=O)CCC(=O)c2cccs2)cc1OC,5.0,-2,/,/,0.1,23*,/,-1
O=C(O)c1ccc(NC(=O)c2cccc(S(=O)(=O)Nc3ccc(C(=O)O)cc3)c2)cc1,0.6,5,-8,3.0,1.5,6.0,-2,1

# Fetched one by one from above (three):
compound,UCH37 DUB inh,B2AR ag,Calb FLC,RanGTP-Impb inh,A1 inh,LANA-H2A inh,T cruzi inh,Beta apoptosis
Cc1nc(CNS(=O)(=O)c2cccnc2)cs1,0.4,0,-1,1.1,1.0,3.8,13,5
CCOC(=O)C1(Cc2cccc(OC)c2)CCN(Cc2ccc3c(c2)OCCO3)CC1,1.6,-1,-6,1.9,2.6,8.5,33,7
O=C(CSCc1ccccc1)Nc1cc([N+](=O)[O-])ccc1F,5.0,-2,4,5.0,0.8,-6.4,1,-1

# Remaining list, next part
compound,UCH37 DUB inh,B2AR ag,Calb FLC,RanGTP-Impb inh,A1 inh,LANA-H2A inh,T cruzi inh,Beta apoptosis
CCCOc1ccc(S(=O)(=O)N2CCCC2)cc1[N+](=O)[O-],0.6,-13,-6,0.1,2.1,1.1,3,6
O=C1CCCc2ccccc2N1Cc1ccc(Cl)cc1,3.0,-2,0,2.0,0.1,-3.4,6,-1
Cc1ccc(C)c(C(=O)COC(=O)c2ccccc2N2C(=O)C3C4CCC(C4)C3C2=O)c1 (stereo not given),6.9,-15,?,1.5,0.4,0.0,8,6
CCC(C)NC(=O)Cn1nc(Cc2ccncc2)c2ccccc2c1=O (stereo not given),3.8,-7,-9,3.0,0.2,11,-3,-5
CCN(C(=O)CSc1nc2nc(C)cc(C)n2n1)c1ccccc1,-1.4,-11,-2,-1.2,-0.4,-0.9,3,/
Cc1ccc(S(=O)(=O)N2CCN=C2SCc2cccnc2)cc1,5.5,2,?,-2.0,0.5,3.2,-6,-13
Nc1cc(=O)[nH]c(SCC(=O)NC2CCCCCCC2)n1,2.1,-2,/,/,0.3,-3.1,/,-17
COc1ccc(O)c(C=Nc2cc(NC(C)=O)c(Cl)cc2Cl)c1,2.3,0,-17,-7.1,0.5,2.8,1,-1
CC(C)(C)OC(=O)NCC(=O)NNC(=O)C(C(=O)OCc1ccccc1)c1ccccc1 (stereo not given),3.6,2,/,/,0.7,-0.2,/,-1
O=c1[nH]c(NCCO)nnc1Cc1ccccc1,0.3,1,-6,3.0,2.0,-3.4,-11,-1

# Following part
compound,UCH37 DUB inh,B2AR ag,Calb FLC,RanGTP-Impb inh,A1 inh,LANA-H2A inh,T cruzi inh,Beta apoptosis
O=C(c1ccc(CNS(=O)(=O)c2cccc(Cl)c2)cc1)N1CCCC1,1.1,1,-2,4.6,0.5,-6.0,-4,-4
CCOC(=O)c1cc2c(C)nn(-c3ccccc3)c2s1,1.0,1,5,-4.3,1.8,-3.2,9,-4
N#CC(c1ccc(Cl)cc1)c1ccc2c(C(F)(F)F)cc(C(F)(F)F)nc2n1 (stereo not given),2.8,35,4,2.2,0.1,1.7,?,124*
O=C(O)C(Cc1ccccc1)NS(=O)(=O)c1ccc(Cl)cc1 (stereo not given),4.8,3,-1,-3.0,-0.3,4.7,-3,-8
CC(=O)C1=C(C)NC(SCC(=O)c2ccc(C)cc2)=C(C#N)C1c1ccco1 (stereo not given),/,/,27,-16,-0.8,-2.7,12,65
Cc1cc2c(cc1S(=O)(=O)Nc1ccc(OC(F)(F)F)cc1)OCC(=O)N2,3.8,2,19,3.7,/,/,-4,/
O=C(CCCn1cnc([N+](=O)[O-])n1)Nc1ccc(Cl)cc1Cl,/,9,1,-1.4,-0.4,-2.8,58*,0

# Screening results (PubChem BioAssay)
